KCNQ2 pot: potentiators of rat KCNQ2 potassium channel; B-score at 10 µM; CHO-K1 KCNQ2, FluxOR thallium flux fluorescence; active compounds read high; 310,000 tested, 0.54% active;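 active = fluorescence ratio B-score at least 3 SD of library B-scores, with initial fluorescence B-score within 3 SD, cut at about 5.3 in these data; same plate scores as AID 2156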;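 note: B-score of peak minus minimum over baseline fluorescence ratio after K+ and Tl+ stimulus; positive B-score means potentiation of KCNQ2 with more thallium influx and brighter signal; only the inactives scoring about 0 or higher are listed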
Target sequence (O88943 whole entry, looked up): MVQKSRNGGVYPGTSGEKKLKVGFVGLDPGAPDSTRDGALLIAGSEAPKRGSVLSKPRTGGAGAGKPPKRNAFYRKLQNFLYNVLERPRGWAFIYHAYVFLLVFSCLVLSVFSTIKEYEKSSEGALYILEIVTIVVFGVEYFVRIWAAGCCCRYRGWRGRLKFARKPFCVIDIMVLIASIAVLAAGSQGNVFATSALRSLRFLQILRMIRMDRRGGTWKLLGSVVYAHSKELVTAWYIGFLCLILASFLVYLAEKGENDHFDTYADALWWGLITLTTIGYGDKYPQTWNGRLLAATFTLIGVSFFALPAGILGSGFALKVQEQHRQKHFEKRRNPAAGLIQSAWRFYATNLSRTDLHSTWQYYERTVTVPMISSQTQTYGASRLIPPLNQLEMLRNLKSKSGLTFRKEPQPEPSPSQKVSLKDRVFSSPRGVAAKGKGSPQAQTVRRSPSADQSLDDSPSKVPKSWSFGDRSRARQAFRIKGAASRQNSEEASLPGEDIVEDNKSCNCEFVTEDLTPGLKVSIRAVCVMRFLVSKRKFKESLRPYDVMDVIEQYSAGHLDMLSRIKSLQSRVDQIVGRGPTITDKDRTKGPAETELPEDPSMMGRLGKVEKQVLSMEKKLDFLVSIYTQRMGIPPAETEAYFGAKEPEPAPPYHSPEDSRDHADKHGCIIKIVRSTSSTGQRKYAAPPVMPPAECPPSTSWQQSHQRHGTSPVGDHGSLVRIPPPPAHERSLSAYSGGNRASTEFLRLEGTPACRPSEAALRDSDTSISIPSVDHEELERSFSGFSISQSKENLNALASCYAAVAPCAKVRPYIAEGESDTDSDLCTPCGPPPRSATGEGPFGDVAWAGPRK
KCNQ2 pot baseline: also measured in KCNQ2 pot; calls as there; B-score; compound at 10 µM; measured here: initial fluorescence intensity artifact check;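 brightness before thallium and not channel activity; 0 = typical well and far values either way flag optical interference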
Active calls of the source: *. Some of the compounds tested. The share of hits here may be higher or lower than overall.

KCNQ2 pot	KCNQ2 pot baseline	SMILES
1.28	2.24	COc1ccc(COC(=O)N/N=C(\C)CC(=O)Nc2ccc(Cl)cn2)cc1
1.51	-1.4	O=C(NC(Cc1c[nH]c2ccccc12)C(=O)NCCCN1CCOCC1)c1cccs1 (centres undefined)
0.95	0.39	O=P(O)(COc1ccccc1)COc1ccccc1
1.38	-1.96	Cc1cc(C(=O)Nc2sc(C)c(C)c2C#N)no1
1.16	1.43	CCN(CC)CCn1c2c(c(SCC(=O)Nc3cccc(C(C)=O)c3)nc1=O)CCCC2
1.16	-1.06	COc1cccc(C(=O)N(CN2CCCC2=O)c2cccc(Cl)c2)c1OC
0.05	-1.98	O=C(CC1C(=O)NCCN1Cc1ccc(-c2ccccc2)cc1)NCC1CC1 (centres undefined)
0.42	-1.34	Cc1ccc(C2(C)NC(=O)N(CC(=O)N(C)CC(=O)Nc3cccc4ccccc34)C2=O)cc1 (centres undefined)
1.9	-1.19	CCc1cccc(OCCN2CCCC2)c1
0.04	-0.93	Cc1ccc(S(=O)(=O)N(CC(=O)N2CCCCCC2)c2ccccc2)cc1
0.14	-0.13	Cc1nnc(SCC(=O)NNC(=O)c2ccco2)s1
0.02	-1.39	N#C/C(=C\Nc1ccccc1SC(F)(F)F)c1nc(-c2ccc(Cl)cc2)cs1
0.96	0.8	Cc1ccc2c(c1)c1n[nH]c(=S)nc1n2CCc1ccccc1
0.55	1.67	O=C(NC(=S)NCC1CCCO1)c1ccccc1 (centres undefined)
0.7	-3.62	O=C(Cn1ncc2c3ccccc3n(Cc3ccccc3F)c2c1=O)NCCCN1CCCC1=O
0.21	-1.48	CCC(C)NC(=O)NC1C(NC(=O)NC(C)CC)N(C)C(=O)N1C (centres undefined)
1.72	0.02	CCN(CC)S(=O)(=O)c1cccc(NC(=O)CCNC(=O)c2ccccc2Cl)c1
1.16	1.68	Cc1ccc(S(=O)(=O)NCc2cccnc2)cc1C(=O)NC1CCCCC1
1.19	-1.15	COc1cc(C2C(C#N)=C(N)OC3=C2C(=O)CCC3)ccc1OC(=O)N1CCOCC1 (centres undefined)
0.45	0.11	CCc1ccccc1NC(=O)N1CCCc2ccccc21
0.61	-1.34	O=C(Nc1c(C(=O)N2CCOCC2)oc2ccccc12)c1cccc([N+](=O)[O-])c1
0.22	-0.04	COc1ccc(C2C(C(C)=O)=C(C)Nc3ncnn32)c(OC)c1OC (centres undefined)
0.07	-1.22	CCCCc1nc2cc(C(=O)N3CCC(O)CC3)ccc2o1
0.4	-1.34	CC1=NN(C(=O)CCCc2ccccc2)C(O)(C(F)(F)F)C1 (centres undefined)
0.02	0.08	CCOc1ccccc1C(=O)n1nc(C)cc1C
1.52	0.6	CC(C)OCCCNC(=S)Nc1ccc(S(N)(=O)=O)cc1
1.2	0.03	Cn1cc(C(=O)c2ccc(Cl)cc2Cl)cc1C=O
0.86	0.58	O=C(CSc1nnc(-c2cccnc2)o1)Nc1cccc(F)c1
0.03	0.68	COc1cccc(C(=O)N/N=C/C(Br)=C/c2ccccc2)c1
0.32	0.36	Oc1[nH]c2ccccc2c1C=Nc1ccc2c(c1)OCO2
0.01	-0.88	COc1ccccc1-n1c(SCC(=O)Nc2cccc(S(N)(=O)=O)c2)nc2ccccc2c1=O
0.42	-0.83	COc1cccc2c(O)cc(=O)n(C)c12
0.03	-0.05	CC(C)C(=O)NS(=O)(=O)c1ccc(N)cc1
0.26	0.15	Oc1oc(C=Nc2ccc(F)cc2F)c2ccccc12
0.75	0.06	CCCCN(C(=O)COC(=O)CSc1cc(C)c2ccccc2n1)c1c(N)n(CCC)c(=O)[nH]c1=O
0.66	-0.32	COc1ccc(NS(=O)(=O)c2ccc(OCC(=O)N3CCOCC3)cc2)cc1
1.35	0.55	CCCn1c(SCC(=O)c2c[nH]c3ccccc23)nnc1-c1ccncc1
1.99	-0.09	Cc1nc(S(=O)(=O)c2ccc(Cl)cc2)c(NCc2ccccc2)o1
0.55	1.11	Cn1c(NCc2ccccc2)nc2c1c(=O)n(Cc1ccccc1)c(=O)n2C
1.22	-0.34	Cc1cc(NC(=O)CSc2nc3c(C)cccc3cc2C#N)no1
0.03	-0.31	CCOC(=O)C(=O)NCC(c1ccco1)S(=O)(=O)c1cccs1 (centres undefined)
1.55	-0.72	CCN(Cc1cc2ccccc2[nH]c1=O)C(=O)c1cccc([N+](=O)[O-])c1
1.86	-0.86	CCN(CC(=O)Nc1c(F)cccc1F)C(=O)Cc1csc(-c2ccccc2)n1
0.02	0.6	CCN1CCN(c2ccc(S(=O)(=O)N3CCCCC3)cc2NC(=O)CC(C)c2ccccc2)CC1 (centres undefined)
0.44	0.77	O=C1C2C3C=CC(C4CC34)C2C(=O)N1/N=C/c1ccc(-c2ccccc2[N+](=O)[O-])o1 (centres undefined)
0.44	0.2	O=C(Nc1cccc(C(F)(F)F)c1)NC1CCN(S(=O)(=O)c2ccc(F)cc2)CC1
1.53	0	CCCOC(=O)c1ccc(NC(=O)Cc2cccs2)cc1
1.05	0.25	COCC(C)n1c(SCc2nc3ccccc3c(=O)[nH]2)nc2ccccc2c1=O (centres undefined)
0.08	-2.76	CCOc1ccc(/C=C2\SC(=S)N(CC(=O)NCCCN3CCOCC3)C2=O)cc1
1.57	1.12	COc1cccc(-c2nnc(SCC(=O)Nc3cc(C)on3)n2C)c1

(continued)
KCNQ2 pot	KCNQ2 pot baseline	SMILES
0.06	0.76	CC1(C)Cc2nc3[nH]c(=S)n(-c4ccccc4)c(=O)c3cc2CO1
0.05	1.74	CCc1cccc(C)c1NC(=O)CN(C)S(=O)(=O)c1ccc(-c2ccc(=O)[nH]n2)s1
0.32	0.53	O=C(c1ccccc1)[C@H]1CC=CC[C@H]1C(=O)O
7.11*	-1.56*	CC1=NN(c2ccc(Br)cc2)C(=O)/C1=C/c1ccc(-c2ccccc2C(=O)O)o1
1.89	0.64	Fc1ccc(NC(=S)Nc2cccnc2)cc1
1.05	0	COc1ccc(/C=C/C(=O)NCC(=O)N/N=C(/C)c2ccc(Cl)cc2)cc1
0.23	-0.48	C/C(N)=C(/C#N)C(=O)COC(=O)C(c1ccccc1)c1ccccc1
0.05	-1.5	CC12CCC(C(=O)NCCCN3CCOCC3)(C(Br)C1=O)C2(C)C (centres undefined)
0.66	1.98	Cc1nc(C)c(-c2ccn(S(=O)(=O)c3ccc(Cl)cc3)n2)o1
0.01	0.81	O=C(Nc1ccc(F)cc1)c1cc(-c2ccccn2)nc2c(Cl)cccc12
0.09	0.39	O=C1CCCN1CCCNc1nc2c(S(=O)(=O)c3ccc(Br)cc3)nnn2c2ccccc12
0.06	0.01	COC(=O)c1ccc(NC(=O)COc2ccccc2OC)cc1
0.56	1.48	Cc1occc1C(=O)NNC(=O)c1ccccc1F
1.17	-0.66	CCOc1ccccc1NC(=S)NCc1ccccc1
1.1	-1.02	CC1=C(c2ccccc2)[N+](=O)C2(CCCCC2)N1[O-]
0.02	0.98	O=C(NCCCN1CCCCCC1)c1ccc2c(c1)NC(=O)C(N1CCOCC1)S2 (centres undefined)
1.07	1.44	C=CCOc1ccccc1CN1CCC(Oc2ccc(C(=O)N3CCCC3)cc2)CC1
0.27	0.33	O=C(c1ccc2c(c1)OCO2)n1nnc2ccccc21
0.01	0.72	C=CCN(C(=O)c1csnn1)C(C(=O)NC1CCCCC1)c1ccc(Cl)cc1 (centres undefined)
3.87	-1.05	O=C(O)c1ccc(CSc2nnc(COc3ccc(Cl)cc3Cl)o2)cc1
0.53	0.14	CC(C)NC(=O)Cn1cnc2c(cnn2-c2ccc(F)cc2)c1=O
0.02	1.29	COc1ccc(S(=O)(=O)NCc2ccccn2)cc1NC(=O)c1ccc(C)cc1
1.44	-1.19	Cc1nc(-c2cc(-c3nc(-c4cc(C(F)(F)F)cc(C(F)(F)F)c4)no3)no2)cs1
0.21	0.05	CN(C)C(CNC(=O)c1cccc(S(=O)(=O)N2CC3(C)CC2CC(C)(C)C3)c1)c1ccco1 (centres undefined)
0.14	0.52	N/C(=N\OC(=O)c1ccc2c(c1)OCO2)c1cccc([N+](=O)[O-])c1
0.45	0.63	CCc1cc(=O)oc2cc(C)cc(OCC(C)=O)c12
1.34	0.73	COc1ccc(OCC(=O)Nc2ccc3oc(=O)ccc3c2)cc1
0.46	1.72	COc1cc(OC)c(C(=O)N/N=C/c2ccoc2)cc1OC
0.37	-0.65	COc1cc(OC)c(OC)cc1/C=C1/C(=O)N=C(N)N1C
0.27	0.82	Cc1ccc(C)c(NC(=O)CSc2nnc(-c3ccncc3)n2N)c1
0.76	-0.01	Cc1ccc(/C=C/C(=O)Nc2ccc(N(C)C)cc2)o1
0.42	0.55	Fc1ccc(NC(=S)N2N=CCC2c2ccccc2)cc1 (centres undefined)
0.03	-1.18	COC(=O)CCCC(=O)N1CCOCCN(C(=O)CCCC(=O)OC)CCOCC1
0.21	0.49	CC(C)CN(CC(C)C)C(=S)Nc1ccc(Cl)cc1
0.54	0.85	Cc1ccc(S(=O)(=O)NC(CC(=O)O)c2cccs2)cc1 (centres undefined)
0.17	0.13	COc1ccccc1NC(=O)CC1C(=O)NCCN1C(=O)Nc1ccccc1 (centres undefined)
0.96	2.58	CCOC(=O)C1=C(C)OC(N)=C(C#N)C1c1cccc(C)c1 (centres undefined)
0.99	0.05	COc1ccc(C(=O)C2CCCN(Cc3ccc(Sc4nncn4C)o3)C2)cc1F (centres undefined)
19.1*	-2.02*	S=c1[nH]c(-c2ccc(Cl)cc2)cs1
1.51	0.66	CCOc1cc2c(cc1OCC)C(c1ccccc1OC)OC(=O)C2 (centres undefined)
27.2*	-1.16*	Cc1ccccc1Nc1nc(N)nc(CSCC(=O)Nc2cccc(Br)c2)n1
0.08	0.31	C/C(N)=C(/C#N)C(=O)CSc1nnc(COc2ccccc2Cl)o1
0.96	-0.7	NC(=O)C1CCN(C2CC(=O)N(c3ccc(F)c(Cl)c3)C2=O)CC1 (centres undefined)
1.4	-1.82	COc1ccc(NC(=O)NC(C)c2ccncc2)cc1OC (centres undefined)
0.28	-0.15	C=CC[N+]1(CC#CCOC(c2ccccc2)c2ccccc2)CCOCC1
0.65	2.78	Cc1ccc(-n2nnc(-c3nccn3C)n2)cc1
3.12	0.08	CC(C)(C)c1ccc(NC(=O)C(=O)C2C(=O)Nc3ccccc32)cc1 (centres undefined)
1.04	-0.03	COc1ccc(/C=N/Nc2nc(=O)[nH]nc2C)cc1[N+](=O)[O-]
3.1	3.08	O=C(CSc1ncn[nH]1)Nc1ccccc1Sc1ccc(Cl)cc1
0.16	0.68	Nc1nc(Nc2ccccc2Cl)cc(=O)[nH]1

Continuation.
KCNQ2 pot	KCNQ2 pot baseline	SMILES
0.82	-1.62	CCCOc1cccc(C2C(C(=O)c3ccco3)=C(O)C(=O)N2CCN(CC)CC)c1 (centres undefined)
0.7	-0.71	COC(=O)c1ccc(NC(=O)C(=O)N2CCN(C(=S)NCCc3ccccc3)CC2)cc1
0.52	1.52	O=C(O)CC(CC(=O)N1CCOCC1)c1ccccc1 (centres undefined)
1.19	0.34	Cn1c(=O)cc(N2CCCCC2)[nH]c1=O
1.01	-0.07	Cc1ccccc1NC(=O)Nc1ccc(C(F)(F)F)cc1
0.45	0.39	CCOC(=O)C1=C(N)OC2=C(C(=O)CC(C)(C)C2)C1c1ccccc1OCC#N (centres undefined)
1.43	-0.23	COc1ccc(/C(C)=N/NC(=O)CNC(=O)C(c2ccccc2)c2ccccc2)c(OC)c1
1.52	-0.14	COc1cc(C(=O)Nc2nnc(SCC(=O)NCC3CCCO3)s2)cc(OC)c1OC (centres undefined)
2.24	-0.67	O=c1oc(-c2ccc([N+](=O)[O-])cc2)nc2ccc(O)cc12

15 entries from above, in markdown:
| Structure | KCNQ2 pot | KCNQ2 pot baseline |
| --- | --- | --- |
| COc1ccc(NC(=O)NC(C)c2ccncc2)cc1OC (centres undefined) | 1.4 | -1.82 |
| C=CC[N+]1(CC#CCOC(c2ccccc2)c2ccccc2)CCOCC1 | 0.28 | -0.15 |
| Cc1ccc(-n2nnc(-c3nccn3C)n2)cc1 | 0.65 | 2.78 |
| CC(C)(C)c1ccc(NC(=O)C(=O)C2C(=O)Nc3ccccc32)cc1 (centres undefined) | 3.12 | 0.08 |
| COc1ccc(/C=N/Nc2nc(=O)[nH]nc2C)cc1[N+](=O)[O-] | 1.04 | -0.03 |
| O=C(CSc1ncn[nH]1)Nc1ccccc1Sc1ccc(Cl)cc1 | 3.1 | 3.08 |
| Nc1nc(Nc2ccccc2Cl)cc(=O)[nH]1 | 0.16 | 0.68 |
| CCCOc1cccc(C2C(C(=O)c3ccco3)=C(O)C(=O)N2CCN(CC)CC)c1 (centres undefined) | 0.82 | -1.62 |
| COC(=O)c1ccc(NC(=O)C(=O)N2CCN(C(=S)NCCc3ccccc3)CC2)cc1 | 0.7 | -0.71 |
| O=C(O)CC(CC(=O)N1CCOCC1)c1ccccc1 (centres undefined) | 0.52 | 1.52 |
| Cn1c(=O)cc(N2CCCCC2)[nH]c1=O | 1.19 | 0.34 |
| Cc1ccccc1NC(=O)Nc1ccc(C(F)(F)F)cc1 | 1.01 | -0.07 |
| CCOC(=O)C1=C(N)OC2=C(C(=O)CC(C)(C)C2)C1c1ccccc1OCC#N (centres undefined) | 0.45 | 0.39 |
| COc1ccc(/C(C)=N/NC(=O)CNC(=O)C(c2ccccc2)c2ccccc2)c(OC)c1 | 1.43 | -0.23 |
| COc1cc(C(=O)Nc2nnc(SCC(=O)NCC3CCCO3)s2)cc(OC)c1OC (centres undefined) | 1.52 | -0.14 |
